KCNQ2 block: KCNQ2 potassium channel inhibitors, primary screen, cell-based, CHO-K1, FluxOR thallium flux, B-score (AID 2156); B-score at 10 µM; 20 min; active compounds read low; only compounds with negative scores are shown here; some inactives read as strong as hits; actives 1.1% (n = 310,000);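 active = fluorescence ratio B-score at most minus 3 library SDs, with starting brightness B-score within 2 library SDs, cut at about -5.5 in these data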
Target sequence (O88943 whole entry, looked up): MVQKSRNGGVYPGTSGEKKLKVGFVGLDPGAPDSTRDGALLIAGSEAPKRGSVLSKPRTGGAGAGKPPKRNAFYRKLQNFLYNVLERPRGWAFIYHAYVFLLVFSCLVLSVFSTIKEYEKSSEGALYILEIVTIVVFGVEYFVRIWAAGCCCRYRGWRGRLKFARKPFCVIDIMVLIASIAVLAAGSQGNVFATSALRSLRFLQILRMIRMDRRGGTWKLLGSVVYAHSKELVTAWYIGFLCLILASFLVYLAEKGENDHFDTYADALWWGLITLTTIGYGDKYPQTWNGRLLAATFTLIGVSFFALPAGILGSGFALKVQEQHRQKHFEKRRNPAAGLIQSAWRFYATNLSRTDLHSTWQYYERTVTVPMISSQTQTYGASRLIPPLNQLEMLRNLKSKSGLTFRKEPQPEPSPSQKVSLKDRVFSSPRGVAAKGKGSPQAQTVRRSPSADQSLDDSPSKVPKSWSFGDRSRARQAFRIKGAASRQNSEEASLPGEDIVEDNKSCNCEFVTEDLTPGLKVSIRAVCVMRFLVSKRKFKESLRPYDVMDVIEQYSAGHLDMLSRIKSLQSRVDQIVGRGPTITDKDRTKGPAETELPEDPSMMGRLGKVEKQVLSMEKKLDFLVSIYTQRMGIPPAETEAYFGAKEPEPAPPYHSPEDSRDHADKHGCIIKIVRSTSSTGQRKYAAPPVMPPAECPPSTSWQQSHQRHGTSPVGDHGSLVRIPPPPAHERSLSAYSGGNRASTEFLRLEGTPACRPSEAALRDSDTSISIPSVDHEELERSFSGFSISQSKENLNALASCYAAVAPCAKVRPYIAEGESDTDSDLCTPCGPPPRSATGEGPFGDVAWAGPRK
KCNQ2 block baseline: also measured in KCNQ2 block; calls as there; B-score; measured here: initial fluorescence intensity artifact check;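 brightness before thallium and not channel activity; 0 = typical well and far values either way flag optical interference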
The depositor's hits bear a star; i = inactive; & = joins results of further samples. Some of the compounds tested; rates above refer to the full screens.

KCNQ2 block	KCNQ2 block baseline	smiles
i	-0.61	COc1ccccc1-c1nc(SCC(=O)N2CCOCC2)n[nH]1
i	0.28	CC(=O)c1cccc(NC(=O)CN(C)S(=O)(=O)c2ccc3c(c2)CC(C)N3C(C)=O)c1 (stereo not drawn)
i	0.57	CN(C)CC(=O)Nc1ccc(Oc2ccc(Cl)cc2)cc1
i	-0.04	O=C(c1ccccc1-c1nc2ccccc2[nH]1)N1CCOCC1
i	0.28	Cc1nc(S/C(=C/c2ccc(-c3ccc(Cl)cc3)o2)C(=O)O)n[nH]1
i	-0.71	O=C1NC2=C(C(=O)OC2)C(c2ccc(OC(F)(F)F)cc2)N1 (stereo not drawn)
i	2.71	COc1ccccc1NC(=O)NCC(=O)Nc1ccc(F)c(F)c1
i	1.87&0.4	Oc1ccc(NC(=S)Nc2ccccc2)cc1
i	0.03	O=C(/C=N/O)NCCN1CCCCC1
i	0.02	Cc1nn(C)c(Cl)c1/C=C/C(=O)O
i	0.9	CCNC(=S)NNC(=O)Cn1c(=O)c2c(ncn2CCOC)n(Cc2ccccc2)c1=O
i	-1.11	CC(C)CCOP(=O)(c1ccc(N(C)C)cc1)C(O)c1ccc(Cl)cc1Cl (stereo not drawn)
i	-1.24	CCn1c(N)[n+](CC(=O)Nc2ccc(SC(F)F)cc2)c2ccccc21
i	2.19	CC(C)(C)C(=O)Nc1ccc(F)cc1[N+](=O)[O-]
i	-0.03	O=C(CCc1ccccc1)N=C1SC2CS(=O)(=O)CC2N1c1ccccc1F (stereo not drawn)
i	0.25	O=C(c1ccco1)N1CCN(C(=O)C2CCCO2)CC1 (stereo not drawn)
i	0.52	CCOC(=O)C1CCCN(C(=O)Cn2nc(C)c3c(C)n(-c4ccccc4)nc3c2=O)C1 (stereo not drawn)
i	-1.96	COC(=O)N1CN(C(=O)OC)CN(C(=O)OC)C1
i	1.23	CC1(C)CC(=O)c2cc(OCC(=O)NCCN3CCCc4ccccc43)ccc2O1
i	-2.58	O=C(c1cc(-c2ccc3c(c2)OCO3)on1)N1CCCCC1
i	-0.54	COc1ccc(S(=O)(=O)N(C)CC(=O)NC2CCCC2)cc1OC
i	-1.12	COCCCn1cc(C(=O)c2cc(OC)ccc2OCC(=O)N2CCCCC2C)cc(C#N)c1=O (stereo not drawn)
i	-0.77	COc1ccccc1CNC(=O)CCn1c(=O)sc2ccccc21
i	0.09	CC(C)Sc1nc(SCC(=O)NCc2ccco2)c2c3c(sc2n1)COC(C)(C)C3
i	-0.14	O=C(COC(=O)c1sc2cc(F)ccc2c1Cl)Nc1ncc(Cl)cc1Cl
i	-0.81	COc1ccc(CCNC(=O)c2ccn[nH]2)cc1OC
i	0.05	COc1ccc(C(=O)NC(=S)Nc2ccc(CN3CCOCC3)cc2)cc1
i	0.63	CCOc1[nH]n(-c2ccc(Cl)cc2)c(=O)c1C=Nc1ccc(O)cc1
i	2.58	N#CC1=C(SCC(N)=O)NC(=O)CC1c1ccccc1Cl (stereo not drawn)
i	0.64	CC(NS(=O)(=O)c1ccc(F)cc1)C(=O)Nc1ccc2c(c1)OCCO2 (stereo not drawn)
i	0.32	COc1ccc(-c2nnc(SCC(=O)Nc3nc4ccccc4s3)n2C)cc1
i	-0.01	Nn1cnc2scc(-c3ccc(Cl)cc3)c2c1=O
i	-0.85	O=C(O)CCCNC(=O)c1nn(Cc2ccccc2)c(=O)c2ccccc12
i	1.6	O=C(CCC(=O)N1CCOc2ccccc21)NCCc1ccccc1
i	-0.49	COc1ccc(CN2CC(=O)N(c3ccc(C)c(C)c3)C2=S)cc1OC
i	0.11	COc1ccc(NC(=O)CC2C(=O)N(Cc3cccs3)C(=S)N2C(C)C)cc1 (stereo not drawn)
i	0.71	CCc1ccc2c(c1)cc(CN(C(=S)Nc1cccc(C)c1)C1CC1)c1nnnn12
i	-1.14	COc1ccc(-n2c(SCC(=O)N3CCOCC3)nc(O)cc2=O)cc1
i	-0.01	COc1ccc(C(=O)NCCN2CCN(C(=O)c3ccc(OC)cc3)CC2)cc1
i	-0.87	CCCCCCn1cc(C(=O)O)c(=O)c2ccccc21
i	2.23	O=C(CCNc1cc(Cl)cc(Cl)c1)c1ccco1
i	0.5	Cc1cc2[nH]c(=O)c(=O)[nH]c2cc1S(=O)(=O)NC1CCCCC1C (stereo not drawn)
i	1.05	COc1ccc(-c2noc(-c3ccoc3C)n2)cc1
i	-0.46	S=C(Nc1ccc(Nc2ccccc2)cc1)NN1CCOCC1
i	-0.66	FC(F)(F)c1cc(-c2ccco2)nc(N2CCN(c3ccccc3)CC2)n1
-7.22*	-1*	Cc1ccc(N(C)S(=O)(=O)c2cc(-c3cnc(C4CC4)o3)ccc2C)cc1
i	0.09	Cc1ccccc1-c1n[nH]c(=S)o1
i	2.34	Cc1ccc(NS(=O)(=O)c2ccc3c(c2)NC(=O)CO3)cc1Cl
i	-0.61	S=C(NCCN1CCOCC1)Nc1ccc(-c2nc3ccccc3[nH]2)cc1
-8.81*	-0.08*	COc1cccc(CSc2nc3sc(C)c(C)c3c(=O)n2Cc2ccco2)c1

Continued:
KCNQ2 block	KCNQ2 block baseline	smiles
i	0.05	O=C(Oc1cccc2ccccc12)c1cc(Cl)nc2ccccc12
i	-0.02	Cc1cc(C)n2nc(CC#N)c(C#N)c2n1
i	0.81	O=C(NN1CCOCC1)c1ccc(Br)cc1
i	1.17	Cn1nccc1C(=O)N1CCN(c2ncccn2)CC1
i	-0.49	COc1ccc(N2CCN(C(=O)CC(NC(N)=O)c3cccc(Oc4ccccc4)c3)CC2)cc1 (stereo not drawn)
i	1.2	CCOC(=O)c1c(NC(=O)COC(=O)c2cc(OC)c(OC)cc2[N+](=O)[O-])sc(C)c1C
i	0.28	Cc1ccc(C)c(NC(=O)CCN2C(=O)c3ccccc3C2=O)c1
i	-0.82	S=c1[nH]nc(/C=C/c2ccccc2)o1
i	-0.08	O=S(=O)(NCC1NCCc2ccccc21)c1ccccc1 (stereo not drawn)
i	1.43	Cc1ccc(C(=O)C2=C(O)C(=O)N(Cc3cccnc3)C2c2ccc(OC(C)C)cc2)o1 (stereo not drawn)
i	-0.57	COCCCN(C(=O)CCSc1ccc(F)cc1)c1c(N)n(Cc2ccccc2)c(=O)[nH]c1=O
i	-0.31	CC(=O)NS(=O)(=O)c1ccc(N2C(=O)c3ccccc3C2=O)cc1
i	1.45	C/C(=N\NC(=O)c1ccc(CSc2cccc3cccnc23)cc1)C1CCCCC1
i	1.11	Clc1cccc(CN2CCSCC2)c1Cl
i	1.06	COc1ccc(N(CC(=O)NCc2ccco2)S(=O)(=O)c2ccc(C)cc2)cc1
i	-0.3	Nc1ccc2nc(SCC(=O)N3CCN(c4ccccc4)CC3)sc2c1
i	-0.31	O=C(NCc1ccc(-c2csnn2)cc1)c1cc(Cl)cc(Cl)c1
i	1.04	Cc1cccc(N(C(=O)c2csnn2)C(C(=O)NC(C)(C)C)c2cccnc2)c1 (stereo not drawn)
i	-0.22	Cc1nc2cccc(C(=O)NCc3ccccc3)c2o1
i	-1.09	CCOn1c(=O)c(-c2cccc3ccccc23)[n+]([O-])c2ccccc21
i	-1.66	Cc1[nH]c2ccccc2c1C(=O)CSc1ccc(F)cc1
i	0.69	COC(=O)c1ccccc1NC(=O)COC(=O)/C=C/c1ccco1
i	-0.26	CC1CCN(C(=O)c2ccccc2NC(=O)Nc2ccccc2)CC1
i	-1.17	Cc1ccc2c(c1)N(Cc1ccc3c(c1)OCO3)C(=O)C(C)O2 (stereo not drawn)
i	7	COc1ccc(C2C=C(c3ccc(Br)s3)Nc3ncnn32)cc1OC (stereo not drawn)
i	0.02	CCOC(=O)c1sc(NC(=O)c2sccc2C)cc1C
i	-0.85	COc1ccc(S(=O)(=O)N(C)C)cc1NCC(=O)Nc1ccc(Br)cc1F
i	0.09	COc1ccc(NC(=O)C2C3C=CC4(O3)C2C(=O)N(CCN2CCCCC2)C4C(=O)NC2CCCCC2)cc1 (stereo not drawn)
i	-0.5	CC1CC(C)CN(C(=O)C2CCCN(c3ncnc4c3nc3n4CCCCC3)C2)C1 (stereo not drawn)
i	-2.18	Cc1nc(N)sc1-c1csc(Nc2cccc(O)c2)n1
i	1.59	CCOC(=O)c1c(NC(=O)c2cccc([N+](=O)[O-])c2C(=O)O)sc2c1CCCC2
i	0.01	O=C(COC(=O)c1ccc(F)cc1)NCCc1ccc(F)cc1
i	-0.64	Brc1ccc(CNc2ccc3ncccc3c2)cc1
i	-0.02	O=C(Nc1nc2ccsc2c(=O)s1)c1ccc(Cl)cc1
i	-0.34	CCN1C(=O)/C(=C/N2CC(C)CC(C)C2)SC1=S (stereo not drawn)
i	-0.9	CC(=O)c1cccc(CN2CCCC(C(=O)Nc3cccc(-n4cccn4)c3)C2)c1 (stereo not drawn)
i	-0.74	Cc1ccc(CN2[C@@H](c3ccccc3)COCCS2(=O)=O)cc1
i	0.74	Cc1nnc(N2CCOCC2)c2nn(-c3ccccc3)c(C)c12
i	0.56	Cc1ccccc1-c1nc(CN2CCCC2c2ccc(F)cc2)c(C)o1 (stereo not drawn)
i	-1.1	Cc1cc(C(=O)CN2C(=O)C(=O)N(Cc3ccccc3)C2=O)c(C)n1-c1ccc2c(c1)OCCO2
i	-0.07	O=[N+]([O-])c1cc(C(F)(F)F)ccc1Sc1ccccn1
i	0.91	CCCN1CCC(=O)N([C@H](COc2ccccc2)CC(C)C)CC1
i	-0.42	Cn1c(C(=O)NCCN2CCc3ccccc3C2)cc2c(=O)n(C)c3ccccc3c21
i	0.75	O=C(Nc1ccccc1C(=O)N1CCCC1)c1ncoc1-c1cccc(Cl)c1
i	-0.8	Cc1ccc(-n2cc(CNCCCn3cccn3)c(-c3cccc(C)c3)n2)cc1
i	-0.54	Cc1ccc(CNC(=O)Cn2c(=O)c3sccc3n(Cc3ccc([N+](=O)[O-])cc3)c2=O)cc1
i	-1.32	O=C(NC1CCCCCCC1)c1cccc(Cl)c1
-8.12*	0.01*	O=C(CNCCC1=CCCCC1)Nc1ccccc1N1CCCCCC1
i	-0.01	COc1ccc(N/N=C(/C(C)=O)N2CCCc3ccccc32)cc1
i	-0.1	COc1cc(/C=C2\C=CC(=O)O2)cc(OC)c1

Additional results follow.
KCNQ2 block	KCNQ2 block baseline	smiles
i	-1.23	COc1ccc(-n2c(-c3ccc(OC)c(OC)c3)n[nH]c2=S)cc1
i	0.62	Cc1cc2n(n1)C(c1cn(-c3ccccc3)nc1C)Nc1ccccc1-2 (stereo not drawn)
i	-0.75	CNC(=S)NNC(=O)c1sccc1OCc1ccc(Cl)cc1Cl
i	-0.11	Cc1ccc(NC(=O)CNC(=O)Cc2cccc3ccccc23)c(O)c1
i	0.52	Cc1cccc(OC(=O)c2sc3ncn(C)c(=O)c3c2C)c1
i	1.45	Cc1cc(C(=O)N/N=C/c2cccnc2)cs1
i	0.63	CC(C(=O)N(C)C)N1c2cccc3cccc(c23)S1(=O)=O (stereo not drawn)
i	-0.13	Cc1ccc(S(=O)(=O)c2ccc(NC(=O)c3c(F)cccc3F)cc2)cc1
i	3.72	CC1=C(C(=O)Nc2cccc(C(=O)N3CCC(C(N)=O)CC3)c2)SCCO1
i	0.37	Cc1ccc(S(=O)(=O)N2CCOCC2)cc1C(=O)NC(=S)N(Cc1ccccc1)C(C)C
i	-0.41	O=C(COc1cccc2c1CCN(Cc1ccc(Br)cc1)C2=O)NCc1ccco1
i	-0.99	Cc1ccc2oc(=O)c3cnn(CC(=O)NCCN(C)C)c3c2c1
i	0.01	O=S1(=O)CCC(NS(=O)(=O)/C=C/c2ccccc2)C1 (stereo not drawn)
i	-1.69	CN(C)/C=N/C(=S)Nc1ccc(Cl)c(Cl)c1
i	1.74	CCn1nnnc1SCC(=O)Nc1ccc(F)cc1
i	-0.67	Cc1ccc(-n2c(SCC(=O)Nc3cccc(C)c3)nc3c(oc4ccccc43)c2=O)cc1
i	6.18	O=Nc1c(O)n(Cc2cccc(Cl)c2)c2ccccc12
i	0.45	CC(C)c1ccc2c(c1)C(c1ccc(N3CCOCC3)cc1)=NNC(c1cccs1)=N2
i	-0.03	COc1cccc(CC2(CO)CCCN(C/C=C/c3ccccc3OC)C2)c1 (stereo not drawn)
i	0.82	O=[N+]([O-])c1cccc(NC(=S)N2CCc3ccccc3C2)c1
i	2.13	Cc1ccc(-c2cc(C(=O)N/N=C/c3c(C)nn(-c4ccccc4)c3C)[nH]n2)cc1
